Screens (PubChem)
MLL AF4-AF9 inh: blocks AF4 peptide binding to human AF9; AlphaScreen, biotin-AF4 peptide binding to FLAG-AF9; inhibition, % at 10 µM; 0.47% of 350,000 active;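 active means every replicate reaching a set inhibition limit, whatever the replicate mean, cut at about 25% in these data; inconclusive means mean inhibition reaches that limit but some replicates miss it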;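 further: 0% = plate neutral control median and 100% = total signal loss; the record names both 10 and 1 µM as test concentration; the first replicate is given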
Target sequence (P42568 whole entry, looked up): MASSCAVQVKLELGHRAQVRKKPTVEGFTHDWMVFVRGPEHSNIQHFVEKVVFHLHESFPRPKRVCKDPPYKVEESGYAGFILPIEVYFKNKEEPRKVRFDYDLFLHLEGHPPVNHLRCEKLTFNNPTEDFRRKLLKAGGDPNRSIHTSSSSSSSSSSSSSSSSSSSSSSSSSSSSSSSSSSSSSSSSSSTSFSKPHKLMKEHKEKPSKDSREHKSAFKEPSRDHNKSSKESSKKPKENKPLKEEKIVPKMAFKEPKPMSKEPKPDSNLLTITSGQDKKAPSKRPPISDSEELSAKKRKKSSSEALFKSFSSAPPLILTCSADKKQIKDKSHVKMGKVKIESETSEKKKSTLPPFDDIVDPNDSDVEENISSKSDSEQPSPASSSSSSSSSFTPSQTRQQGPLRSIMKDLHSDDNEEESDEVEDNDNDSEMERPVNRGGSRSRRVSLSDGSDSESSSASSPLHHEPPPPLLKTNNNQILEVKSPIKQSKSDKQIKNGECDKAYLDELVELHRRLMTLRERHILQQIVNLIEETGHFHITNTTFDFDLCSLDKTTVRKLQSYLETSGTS
Calb FLC: C. albicans growth modulation with fluconazole. C. albicans CaCi-2 (fluconazole-resistant clinical isolate) + fluconazole, Alamar Blue growth, 48 h. growth inhibition, % (concentration not given with the values). 0.57% of 300,000 active;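 active means most replicates above 75%; inconclusive means exactly half above 75%; inactive means most below 75%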;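 further: all wells also contain fluconazole at 8 µg/ml as a sub-toxic cotreatment; 0% = median of DMSO wells and 100% = median of geldanamycin control wells; wells of about 8 µL received 7.5 nL stock; the first replicate is given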
Beta apoptosis: blocks beta cell apoptosis; INS-1E cytokine-induced death, ATP luminescence, 48 h; percent of positive-control rescue, neutral wells zero; protection from apoptosis, % (test concentration not listed); 0.8% of 300,000 active; AID 435005;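 active means all replicates at 75% or more, or half of them and the mean; inconclusive means half reach 75% but not the mean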;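 further: 0% = cytokine-treated negative control wells and 100% = positive control rescue; higher means more ATP so stronger rescue from cytokine killing; wells of about 40 µL received 100 nL stock; the first replicate is given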
Vif TR-FRET: inhibitors of Vif binding to APOBEC3G peptide, primary screen, biochemical, TR-FRET, GST-Vif 1-94, biotin-A3G peptide, dose response retest (AID 1117319) | 0.57% of 260,000 active | inhibition, %, or IC50 in µM where a hit was titrated | TR-FRET GST-Vif / biotin-A3G peptide binding; higher % means a stronger effect; test concentration not given here; strong numbers were not always called active;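 active means above the screen mean plus three standard deviations and confirmed in dose response; inconclusive means results disagree or hit not tested in dose response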;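 further: Vif residues 1-94 fused to GST binding biotinylated APOBEC3G peptide 110-148; 0% = full assay without inhibitor and 100% = GST in place of GST-Vif; retest series ran down from 100 µM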
rRNA inh HTS: selective bacterial rRNA inhibition in E. coli; AID 720706; GFP signal change (wild-type ribosome), % (concentration not given with the values); E. coli WT GFP vs humanized-ribosome RFP mutants, fluorescence, 24 h; hits give low values; DMSO median 0, no signal -100; 1.6% of 350,000 active;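 active means significant combined selectivity score with lowered wild-type GFP, culture density cut under 30%, mutant RFP and density less affected; inactive means any of these conditions unmet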; further: one replicate is shown; some compounds called inactive have numbers as strong as hits
Bfl-1 A1 inh: inhibitors of the anti-apoptotic protein A1, read as caspase activation; AID 2462; 0.066% of 330,000 active; MEF A1-2A-BIM cells, Caspase-Glo 3/7 luminescence, 3 h; percent of clofoctol response, vehicle zero; caspase activation, % (concentration not given with the values);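 active means over half of replicate activation scores above 10%, or exactly half above 10 with the replicate mean above 10; inconclusive means replicate mean below 10 yet half the replicates above 10; inactive means over half of replicates below 10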;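 further: wells of about 30 µL received 50 nL stock; many hits fall short of the cut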
T cruzi repl: T. cruzi replication inhibition | T. cruzi beta-gal in NIH3T3, luminescence, 90 h | inhibition, % (test concentration not listed) | 1.4% of 300,000 active;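 active means mean inhibition across valid replicates above about 55%, limit read from the data; inconclusive means mean below that limit but half or more replicates reach it; inactive means mean below it, under half of replicates reach it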;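 further: signal also drops with host cell toxicity which is not excluded here; 0% = plate median of DMSO wells and 100% = zero luminescence signal; higher percent means less beta-gal luminescence so fewer parasites; stock transfer was 50 nL into about 50 µL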
RanGTP-Impb inh: disruptors of Ran-importin-beta complex formation – biochemical, FRET, CFP-Ran, YFP-importin-beta, homogeneous, primary screen; cell-free CFP-Ran/YFP-importin-beta FRET ratio; 1.1% of 300,000 active; inhibition, % (test concentration not listed); AID 2216;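 active means most replicates above 15%; inconclusive means exactly half above 15%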;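 further: 0% = DMSO wells and 100% = Ran loaded with GDP instead of GTP; wells of about 40 µL received 100 nL stock; the first replicate is given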
rRNA inh HTS OD600: further read-out of rRNA inh HTS, marked with its call; OD600 change, %; measured here: OD600 growth;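 optical density of the mix in the first replicate; 0 = DMSO median and -100 = no signal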
rRNA inh HTS RFP: also measured in rRNA inh HTS; calls as there; RFP signal change, %; measured here: RFP humanized mutant strains;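 first replicate; 0 = DMSO median and -100 = no signal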
* hit, by the source's call; ? = inconclusive; · = not tested or not shown; & = joins results of further samples. Only part of the results is shown. The share of hits here may be higher or lower than overall.

Values run as follows: T cruzi repl	Beta apoptosis	rRNA inh HTS OD600	Vif TR-FRET	MLL AF4-AF9 inh	rRNA inh HTS	RanGTP-Impb inh	rRNA inh HTS RFP	Calb FLC	Bfl-1 A1 inh
1	COC(=O)c1ccccc1NC(=O)N1CCN(C/C=C/c2ccccc2)CC1
    17	9	·	1%	·	·	0.2	·	-3	0.3
2	COc1ccc(CNC(=O)C2CCN(c3nc(-c4ccccc4)nc4c3CCC4)CC2)cc1
    48	16	13	1%	1.4	14	-1.1	22	0	0.3
3	Cc1c(C(=O)Nc2ccccn2)sc2nc3n(c(=O)c12)CCC3
    -5	4	-6	-4%	3.0	-8	0.8	0.1	-1	-1.4
4	O=c1cc2c(=O)oc3cc(O)c(O)oc3c2c(O)c1O
    -7	·	13	1.7µM*	-7.5	7	1.3	-5.0	-3	·
5	COc1ccc(C2CC(O)(C(C)(C)O)NO2)cc1 (stereo not given)
    2	·	·	14%	·	·	5.3	·	-10	-0.6
6	COc1cccc(F)c1C(=O)NC(=O)Nc1ccc2nc(C)oc2c1
    6	3	·	?	·	·	2.9	·	2	-0.6
7	O=C(NCCCN1CCOCC1)c1ccc(NS(=O)(=O)c2ccccc2)cc1
    -1	0	18	·	-1.0	8	10.0	0.1	7	0.5
8	COc1ccc(NC(=O)CSCC(=O)OCc2cccc(OC)c2OC)cc1
    -18	1	-2	0%	-0.2	-3	2.3	1.4	1	1.4
9	COc1ccc(C2(O)CCN(CCCCOc3ccccc3)CC2)cc1
    39	3	9	0%	4.2	14	4.5	4.0	-6	?
10	Cc1cnn(-c2ccc3nnc(-c4ccc(Cl)cc4)n3n2)c1
    7	-1	·	2%	·	·	26	·	4	0.2
11	O=C(Cc1cccs1)NCc1cccs1
    3	-2	9	3%	-6.6	9	1.8	-4.9	-8	-0.4
12	O=C(c1cc2c(F)cccc2s1)N1CCCC1
    17	-2	-11	-6%	-0.6	3	4.1	-2.5	5	-0.1
13	FC(F)(F)c1cccc(Nc2nc(N3CCOCC3)nc(N3CCOCC3)n2)c1
    23	11	0	4%	3.4	-1	-0.6	-0.4	19	-1.5
14	Cc1ccnc(NC(=O)CSc2ccccn2)c1
    -12	·	8	·	·	6	-5.9	3.0	15	0.5
15	O=C(CSc1nnc(-c2ccncc2)n1-c1ccc(F)cc1)NNC(=O)c1cccc(O)c1
    -19	-2	-9	18%	-7.1	10	4.7	-9.9	-12	-0.2
16	CCCCc1cc(=O)oc2cc(OCC(=O)N[C@@H](Cc3ccccc3)C(=O)O)ccc12
    -4	-7	-5	·	-3.0	1	2.8	-0.4	-10	-0.3
17	COCCNC(=O)CN1C(=O)COc2ccc(Cl)cc21
    -9	-10	1	·	-1.7	1	-2.4	-0.3	-4	0.7
18	OCCN1CCN(c2ncnc3ccc(Br)cc23)CC1
    -11	·	-2	-2%	-5.8	5	0.0	-0.4	-4	·
19	C#CCN(CC=C)C(=O)CCc1nnc(COc2ccccc2)o1
    -1	-5	2	0%	1.8	6	-1.6	-3.4	-10	0.0
20	Cc1csc2c(N3CCN(C(=O)Nc4ccc(OC(F)(F)F)cc4)CC3)ncnc12
    5	1	-1	·	-0.5	-12	3.0	3.1	-11	0.7
21	CCn1c(COc2ccccc2C)nnc1SCC(=O)CC(=O)Nc1ccccc1
    -6	-13	·	23%	·	·	3.8	·	9	-0.4
22	CC(Oc1ccc(S(=O)(=O)N2CCCC2)cc1[N+](=O)[O-])C(=O)NC1(C#N)CCCCC1 (stereo not given)
    ·	5	3	-10%	4.2	-6	·	-0.2	·	-0.3
23	Cc1ccc(Cl)cc1N1CCN(S(=O)(=O)c2ccc3c(c2)NC(=O)C(C)C(=O)N3)CC1 (stereo not given)
    4	21	-6	·	6.0	7	0.3	-0.4	-4	0.4
24	CCCc1nnc(NC(=O)CCC(=O)N2CCN(S(=O)(=O)c3ccc(OC)cc3)CC2)s1
    -3	0	-4	·	-1.6	4	0.2	-3.5	-18	-0.6
25	CCc1nn(CC(=O)N2CCCCCC2)c(=O)c2cc3ccccc3n12
    10	4	0	·	-8.8	2	0.6	-5.5	9	-0.8
26	COc1cc(/C=C/C(=O)OCC(=O)NCC2CCCO2)ccc1OCC#N (stereo not given)
    -18	-12	·	·	·	·	3.9	·	-25	-0.1
27	O=C(CC(Nc1ccc(F)cc1)C(=O)OCC(=O)c1cccs1)c1ccccc1 (stereo not given)
    -19	-3	-7	14%	2.5	3	1.0	-5.2	0	0.3
28	Clc1ccc(NNc2ccnc3cc(Cl)ccc23)cc1
    53	11	·	-3%	·	·	-1.3	·	0	-0.9
29	Cc1cc(-n2c(=O)c(C#N)cc3c(=O)n4cccc(C)c4nc32)no1
    -10	1	·	2%	·	·	184*	·	-1	0.8
30	O=C(c1cccc(F)c1)N1CCN(C(=O)c2cc3ncc(Br)cn3n2)CC1
    -17	-6	·	13%	·	·	-0.5	·	15	-0.5
31	CCC(Sc1nc(=O)cc(N)n1-c1ccccc1)C(=O)Nc1cc(C)on1 (stereo not given)
    -4	-7	·	3%	·	·	2.7	·	-31	-0.1
32	CC(C)[C@H](NC(=O)c1ccccc1F)C(=O)NC1CCCCC1
    ·	0	3	·	-1.2	7	·	-0.4	·	1.2
33	Clc1ccc(-c2nnc(C3CC3)o2)cc1
    -1	-9	14	-7%	-3.7	8	1.9	5.7	-5	-0.2
34	COCC(=O)NC1CCN(CC(=O)Nc2ccc(OC)cc2[N+](=O)[O-])CC1
    -3	-7	·	64%	·	·	0.8	·	15	0.4
35	CCOC(=O)c1nnn(-c2ccc([N+](=O)[O-])cc2)c1C
    -8	2	5	·	-1.1	7	0.7	-3.3	8	0.4
36	CNC(=O)c1csc(-c2ccccc2)n1
    -7	-10	·	-3%	·	·	7.9	·	3	-0.9
37	CCCNC(=O)c1nn2cc(Br)cnc2c1Cl
    6	-8	-2	1%	-1.5	-7	3.7	-8.1	3	0.4
38	CCNC(=O)c1ccc(OCC(=O)Nc2ccc(F)cc2)c(OC)c1
    -16	2	4	-1%	1.8	-5	-5.0	-3.5	-3	-1.5
39	COc1ccccc1N1CCN(CCCNC(=O)Cn2ncc3c([nH]c4ccccc43)c2=O)CC1
    20	·	-1	10%	0.9	0	2.9	-2.2	7	0.6
40	CCOc1ccc(NC(=O)c2ccc(NC(=O)c3cn4c5c(c(N6CCN(C)CC6)c(F)cc5c3=O)OCC4C)cc2)cc1 (stereo not given)
    19	4	·	1%	·	·	3.4	·	10	0.3
41	COc1ccc(S(=O)(=O)Nc2cc3c4c(c2)CC(=O)N4CCC3)cc1
    -6	4	-9	1%	3.5	-9	?	0.2	2	0.6
42	CN1C(C(=O)NCc2ccco2)CC2Cn3c(nc4cc(Cl)c(Cl)cc43)C21 (stereo not given)
    3	2	9	·	-0.3	8	-3.2	5.4	-22	0.4
43	Cc1cc(N)n(-c2ccc(C(=O)O)cc2)n1
    -19	4	14	·	-0.4	12	-0.6	3.6	32	-0.9
44	O=c1[nH]c(Sc2ccc([N+](=O)[O-])cc2[N+](=O)[O-])nc2ccccc12
    61*	7	5	·	3.6	11	2.2	-2.4	3	1.2
45	NC(=O)c1ccsc1NC(=O)CSc1nnc2ccccn12
    -10	-1	18	14%	1.2	19	4.6	5.5	-14	-0.2
46	Cc1ccc(-c2nnn(CC(=O)NC3CCCc4ccccc43)n2)cc1 (stereo not given)
    -6	0	·	31%	·	·	-5.4	·	2	-0.3
47	Cc1ccc(-c2nc3ccccc3[nH]2)cc1NC(=O)/C=C/c1ccco1
    17	-8	·	6%	·	·	3.3	·	13	-0.3
48	O=C(Nc1ccc2c(c1)OCO2)C1CCCN(S(=O)(=O)c2cccs2)C1 (stereo not given)
    -6	1	·	10%	·	·	-3.1	·	1	0.5
49	COC(=O)c1ccccc1NS(=O)(=O)c1ccc2c3c(cccc13)C(=O)N2
    10	-4	·	·	·	·	4.0	·	30	0.1
50	O=C(CCOc1ccccc1)Nc1ccnn1C1CCN(C(=O)CCC(F)(F)F)CC1
    -3	-4	10	-1%	-1.2	22	5.4	0.1	-2	1.3
51	CCN(CC)c1ccc(N)cc1S(=O)(=O)Nc1ccccc1OC
    21	1	3	-8%	3.2	4	0.2	-3.7	-3	0.0
52	CCN1C(=O)CS/C1=C(\C#N)S(=O)(=O)c1ccccc1
    -17	-7	·	>100µM*	·	·	1.6	·	-7	-0.6
53	CC(NC(=O)c1ccc(Br)s1)c1ccncc1 (stereo not given)
    -5	0	-6	?	1.0	2	-3.2	2.5	-3	0.6
54	COC(=O)c1ccc(NC(=O)CSc2nnc(C)n2-c2ccccc2)cc1
    -1	-3	·	2%	·	·	-3.7	·	-31	0.8
55	CCCCc1cc(=O)oc2cc(C)cc(OCC(=O)N[C@@H](CSCc3ccccc3)C(=O)O)c12
    -7	·	·	·	3.5	·	3.1	·	-2	0.1
56	Cc1cc(NCc2ccccn2)n2ncc(-c3ccccc3)c2n1
    -15	50	-27*	-5%	·	-38*	-1.1	-6.9*	7	-1.6
57	Cc1cc(Cl)ccc1OCc1cn2cccnc2n1
    -11	2	8	·	-2.3	-12	1.8	5.6	61*	-3.1
58	CCCc1cc(=O)[nH]c(SCC(=O)N2CCN(S(=O)(=O)c3ccc(C)cc3C)CC2)n1
    -21	-8	·	-8%	·	·	4.2	·	2	0.4
59	COc1cc(-n2c(C)nc3cccnc32)c(Cl)cc1C(=O)O
    -10	-4	2	-4%	-2.4	-1	2.7	1.8	-4	-0.1
60	CSc1ccccc1NC(=O)CN(C)C(C)C(=O)Nc1ccc(C#N)cc1 (stereo not given)
    -2	6	-17	7%	0.4	-21	-1.8	-2.0	-2	1.4

Additional structures:
Values run as follows: T cruzi repl	Beta apoptosis	rRNA inh HTS OD600	Vif TR-FRET	MLL AF4-AF9 inh	rRNA inh HTS	RanGTP-Impb inh	rRNA inh HTS RFP	Calb FLC	Bfl-1 A1 inh
61	Cc1sc2nc(CSCC(=O)Nc3ccccc3C#N)[nH]c(=O)c2c1C
    -21	-3	·	·	·	·	-2.3	·	-2	-0.1
62	CCOC(=O)c1ccc(-n2cncn2)nc1
    2	-5	·	0%	·	·	-2.7	·	9	-1.3
63	CC1=CC(C)(C)N(C(=O)CSc2nnc(-c3ccc(C)cc3)o2)c2ccc(C)cc21
    14	82*	·	-6%	·	·	-1.8	·	-5	0.1
64	CC#CCN1c2ccccc2[C@]23C[C@@H](C(=O)OC)N(C(=O)NC4CCCCC4)C2=NC(C(=O)OC)=C(C(=O)OC)[C@H]13
    13	1	1	·	6.6	8	1.8	1.1	13	0.2
65	CCn1c2ccccc2c2cc(NC(=O)CSc3nnc(-c4cccc(OC)c4)n3N)ccc21
    22	-5	·	-12%&-2%	·	·	-1.6	·	54	-1.0
